Bioassay records deposited in PubChem BioAssay by several laboratories.
MT1-MMP act inh – inhibitors of human MT1-MMP activation; HT1080 RFP-PRO-GFP cells, GFP/RFP ratio fluorescence, overnight; percent of plate control window, DMSO zero; AID 651647; P50281; GFP/RFP ratio change, % at 20 µM; actives 0.061% (n = 360,000);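 active means GFP/RFP ratio change of at least 30% with cell ATP level not reduced by more than half and red fluorescence within 50% of control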; further: strong numbers were not always called active
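system = RFP-PRO-GFP reporter HT1080 cells | dosing = 20 µM single dose, 1% DMSO | timing = overnight cell settling, then overnight compound exposure, 37 °C, 5% CO2 | read-out basis = GFP/RFP fluorescence ratio | controls = DMSO and RFP-L50D-GFP cell wells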
CSC inhib – blocks cancer stem cells. inhibition, % at 7.5 µM. cancer stem cell-like cells viability, luminescence. actives 1.1% (n = 300,000);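 active means mean at 75% or more and at least half the replicates too; inconclusive means mean and replicates disagree; tested in HMLE shEcad cells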;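 further: 0% = median of negative and 100% = median of positive control wells; the first replicate is given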
Yeast UUG start – yeast start codon fidelity modulation | actives 0.13% (n = 350,000) | S. cerevisiae UUG-firefly luciferase reporter, luminescence/redox ratio | activity score, % at 18.7 µM;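 active means replicate mean at a twofold rise or more, about +100% in these data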;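 further: firefly luciferase made from a UUG start codon reports start codon fidelity; reporter light over untreated wells divided by growth signal over untreated wells; some hits fall short of that in this replicate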
PABP FP inh – PABP-poly(A) binding inhibition; PABP-poly(A) RNA binding, fluorescence polarization; inhibition, % at 35 µM; actives 1% (n = 290,000); AID 2014;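 active means 50% or more with normal probe brightness, or confirmed in later tests; inconclusive means above 50% with abnormal brightness, or retests that disagree; inactive means below 50% or failed in later tests; about a fifth of its hits are not listed in these tables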;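 further: calls also rest on retests at 20 µM and on dose response follow-up; controls were probe without protein and protein plus probe with vehicle; some compounds called inactive have numbers as strong as hits; many hits fall short of the cut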
Target sequence (P11940 whole entry, looked up): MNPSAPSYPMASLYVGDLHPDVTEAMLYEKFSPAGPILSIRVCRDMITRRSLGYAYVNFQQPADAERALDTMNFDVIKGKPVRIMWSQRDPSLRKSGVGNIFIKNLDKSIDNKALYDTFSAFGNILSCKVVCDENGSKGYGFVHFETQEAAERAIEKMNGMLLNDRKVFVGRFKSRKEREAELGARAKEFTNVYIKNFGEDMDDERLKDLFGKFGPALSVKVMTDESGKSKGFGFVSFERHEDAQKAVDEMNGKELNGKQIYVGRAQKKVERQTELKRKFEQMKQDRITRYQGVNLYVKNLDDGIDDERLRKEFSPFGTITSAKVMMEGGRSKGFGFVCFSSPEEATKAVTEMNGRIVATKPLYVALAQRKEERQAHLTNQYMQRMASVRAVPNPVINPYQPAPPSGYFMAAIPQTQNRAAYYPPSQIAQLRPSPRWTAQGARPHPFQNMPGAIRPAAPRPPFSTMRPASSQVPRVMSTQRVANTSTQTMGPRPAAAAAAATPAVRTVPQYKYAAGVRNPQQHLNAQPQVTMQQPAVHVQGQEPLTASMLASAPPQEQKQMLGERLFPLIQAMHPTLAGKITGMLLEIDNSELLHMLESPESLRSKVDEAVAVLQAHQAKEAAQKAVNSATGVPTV
eIF4H inh – inhibitors of RNA binding by human eIF4H; Q15056; eIF4H fluorescence polarization binding assay; inhibition, % at 35 µM; actives 0.94% (n = 290,000); AID 2012;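 active means 50% or more with normal probe brightness, or confirmed in later tests; inconclusive means above 50% with abnormal brightness, or retests that disagree; inactive means below 50% or failed in later tests; about a fifth of its hits are not listed in these tables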;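 further: calls also rest on retests at 20 µM and on dose response follow-up; 0% = protein and probe with vehicle and 100% = probe without protein; strong numbers were not always called active; many hits fall short of the cut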
Rce1 inhib – blocks yeast Ras-converting enzyme | Q03530 | yeast membranes, quenched prenylated peptide cleavage fluorescence | calls only | actives 0.27% (n = 290,000);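 active means fall in fluorescence gain of 50% or more versus controls, with final raw signal at or below 3038400; inconclusive means same 50% fall but final raw signal above 3038400; inactive means fall in fluorescence gain under 50%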;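 further: plate controls were neutral control wells for no effect and wells lacking membranes for full effect; tested at 10 µM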
HIV Env fusion – blocks HIV Env-driven cell-cell fusion. inhibition, % at 12.3 µM. actives 1.1% (n = 360,000). AID 651610. HeLa-JRFL Env/CEM21 cell fusion, luciferase;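 active means mean replicate inhibition score of at least 50 and every replicate individually at or above 50; inconclusive means only one of the two criteria met; inactive means mean below 50 and not all replicates reaching 50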;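 further: 0% = plate neutral controls and 100% = maraviroc near 300 nM; one replicate is shown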
eIF4H inh retest – further read-out of eIF4H inh, marked with its call; inhibition, %; compound at 20 µM; confirmation average;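 mean of two retest wells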
PABP FP inh retest – also measured in PABP FP inh; calls as there; inhibition, %; compound at 20 µM; confirmation repeats;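 mean of two retest wells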
MT1-MMP act inh RFP – second read-out of MT1-MMP act inh, no call of its own (marks repeat the call); RFP signal change, %; measured here: RFP expression control read;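 0 = vehicle wells; hits needed this value within 50% of zero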
* = called active by the depositor; i = inactive; ? = inconclusive; . = not tested or not shown; & = joins results of further samples. An excerpt; the hit share may differ from the screen's.

SMILES	MT1-MMP act inh	MT1-MMP act inh RFP	CSC inhib	Yeast UUG start	PABP FP inh	eIF4H inh	Rce1 inhib	HIV Env fusion	others
CN(C)C1(CNC(=O)Nc2ccc(Cl)c(Cl)c2)CCCCC1	0	-1	5	-9	2	0	i	-19
O=C(CCNS(=O)(=O)c1ccccc1)Nc1ccc(Cl)cc1C(=O)c1ccccc1	4	-7	19	.	17	-1	i	7
CCN1CCC2(CCNC2)C1 (stereo not drawn)	-6	1	-9	-19	7	-6	i	28
C=CCN1C(=O)/C(=C/c2cc(C)n(-c3cccnc3)c2C)C(=O)NC1=S	-3	12	0	.	106	72	i	5	eIF4H inh retest=39;PABP FP inh retest=-2
O[C@@H]1CCCC[C@H]1N1CCC(c2ccccc2)CC1	2	7	14	-33	12&1	0&1	i	.
CCOc1cc(C2NCc3ccccc3-n3cccc32)ccc1OC (stereo not drawn)	-5	-2	-23	-1	6	-6	i	14
COC(=O)C1=C(c2cccc(OCc3ccccc3)c2)C[C@@H]2CC[C@H]1N2C(=O)NCCOc1ccc(OC)cc1	-1	-19	19	-12	.	.	.	5
CCOC(=O)C1(CCc2ccccc2)CCN(C2CCSCC2)CC1	-2	1	-10	-7	-10	4	i	-7
COC(=O)C1=C(c2cccc(OCc3ccccc3)c2)C[C@@H]2CC[C@H]1N2C(=O)NCc1ccccc1	2	-3	10	-22	.	.	.	-2
CC(=NCCC(c1ccccc1)c1ccccc1)c1c(O)n(C)c(=O)n(C)c1=O	-1	0	13	.	0	-9	i	9
COc1ccc(CN2C(=O)NC(=O)/C(=C\c3cc(OC)c(OC)c(OC)c3)C2=O)cc1	0	4	1	.	2	20	i	2
CCOC(=O)C(NC(=O)C(Cc1ccc(N(CCCl)CCCl)cc1)NC(C)=O)C(C)C (stereo not drawn)	-3	1	44	.	4	-1	i	-26
CSCCC(N=Cc1c(O)n(-c2ccc(Br)cc2)c(=O)[nH]c1=O)C(=O)OC(C)(C)C (stereo not drawn)	-3	1	-12	3	7	-14	i	4
O=P(C(Cl)Cl)(N1CCOCC1)N1CCOCC1	0	-1	-3	.	1	-4	i	8
COC(=NC1CCCC1)C(O)c1c[nH]c2ccccc12 (stereo not drawn)	-3	4	-4	7	-4	5	i	-9
Cc1ccc(OP(=O)(Nc2cccc(C)c2)Oc2ccc(C)cc2)cc1	-6	-10	55	-11	-9	-1	i	15
COc1ccc(OC)c(N2C(=O)/C(=C/c3ccco3)C(=O)NC2=S)c1	.	.	-9	.	68*	63*	i	.
COc1nc2ccccc2nc1N1CC1	9	7	.	-4	.	.	.	i
CC(=O)N1Cc2cnnn2-c2ccccc2C1C#N (stereo not drawn)	-1	3	.	-1	.	.	.	-21
O=C(c1cccc(Cl)c1)C1CCCN(Cc2cccc3cnccc23)C1 (stereo not drawn)	-12	-19	6	.	0	-9	.	12

Pulled by structure from the entries so far (2):
SMILES	MT1-MMP act inh	MT1-MMP act inh RFP	CSC inhib	Yeast UUG start	PABP FP inh	eIF4H inh	Rce1 inhib	HIV Env fusion	others
COc1ccc(OC)c(N2C(=O)/C(=C/c3ccco3)C(=O)NC2=S)c1	.	.	-9	.	68*	63*	i	.
COc1nc2ccccc2nc1N1CC1	9	7	.	-4	.	.	.	i

Next part
SMILES	MT1-MMP act inh	MT1-MMP act inh RFP	CSC inhib	Yeast UUG start	PABP FP inh	eIF4H inh	Rce1 inhib	HIV Env fusion	others
C=CCN1C(=O)/C(=C/c2ccc3c(c2)CCCN3CCC)C(=O)NC1=S	13	27	-16	-22	-13	2	i	.
O=C1CN=C(c2ccc(Cl)cc2)c2oc3ccccc3c2N1	0	-1	13	-15	0	-10	i	-10
COc1ccc2c(c1)C(c1ccc(N(CCCl)CCCl)cc1)=NCC2	-3	-9	.	8	.	.	.	-3
Nc1ccccc1C(=O)OCCOc1ccccc1	-1	0	-11	-33	-10	5	.	.
COc1ccc(CN2Cc3cnnn3-c3ccccc3C2C)cc1 (stereo not drawn)	5	2	.	-1	.	.	.	-14
c1ccc2c(c1)CN(Cc1ccc3c(c1)OCO3)Cc1cnnn1-2	-5	-5	.	-12	.	.	.	-7
Cc1cccc(-n2c(O)c(/C=N/Nc3nc4c(c(=O)n(C)c(=O)n4C)n3C)c(=O)[nH]c2=S)c1	-1	8	4	-25	-6	-6	i	.
CCCN1CCc2cc(O)cc3c2[C@H]1Cc1ccc(O)c(O)c1-3	7	2	16	-9	.	.	i	9
Cc1ccc(N2CCNCC2C)cc1 (stereo not drawn)	1	2	.	-13	.	.	.	9
Cc1cccc(OP(=O)(Nc2cccnc2)Oc2cccc(C)c2)c1	0	-1	-12	.	2	-3	i	10
c1ccc(CCNC2CCCCCC2)cc1	-3	3	31	-11	8	11	i	-12
NP(=O)(OCC(F)(F)F)Oc1ccccc1 (stereo not drawn)	-1	6	15	-22	.	.	i	-25
C[n+]1c(-c2ccccc2)sc2ccccc21	3	1	-15	-9	14	-5	i	8
CN1CCCN(C(=O)COc2ccccc2)CC1	1	4	20	-3	5	5	i	0
COc1ccc2[nH]cc(C(=O)CN(C)C)c2c1	0	5	-11	-11	.	.	i	.
CC(=Nc1ccc2c(c1)CCC2)c1c(O)n(-c2ccccc2)c(=O)[nH]c1=O	1	-2	9	.	-1	4	i	-9
COC(=O)C1=C(c2ccc(F)cc2OCc2ccccc2)C[C@@H]2CC[C@H]1N2C(=O)NCc1ccccc1Br	-10	-11	28	-21	.	.	.	-24
Cc1cc(C=O)c(C)n1C1CC1	3	5	-7	.	-15	5	i	2
CCN(CC)C(=O)c1ccc(NC(=O)COc2ccccc2F)cc1	2	5	-14	9	-4	-4	i	-13
OCC(Cl)CCl (stereo not drawn)	-2	4	-14	-4	.	.	.	.
CCCCn1c(=O)c(C(=O)Nc2cccc(C)c2)c(O)c2ccccc21	-1	-5	4	-8	-4	-5	i	9
C=Cn1ccnc1P(=S)(c1nccn1C=C)c1nccn1C=C	1	8	-12	-16	6	-1	i	-54
O=P(C(c1c[nH]c2ccccc12)N1CCOCC1)(N1CCOCC1)N1CCOCC1 (stereo not drawn)	-1	5	-3	-10	-5	-5	i	18
O=[N+]([O-])c1ccc(N2CCNCC2)cc1NCc1ccco1	-3	3	9	-30	7	-11	i	-9
CCN(CC)c1ccc(N=Cc2c(O)n(Cc3ccco3)c(=O)[nH]c2=O)cc1	-97	4	-13	.	?	?	i	0
O=C1NC(=O)C(CCc2ccccn2)(Cc2cccc(Cl)c2Cl)C(=O)N1c1ccc(Br)cc1 (stereo not drawn)	-4	-5	-4	.	-1	7	i	.
O=C(O)CN1C(=O)CN=C(c2ccccn2)c2cc(Cl)ccc21	5	0	-5	-23	3	4	i	-14
COC(=O)C1=C(c2ccc(C(C)=O)cc2)C[C@@H]2CC[C@H]1N2C(=O)N1CCC(O)CC1	2	6	0	-15	.	.	.	-7
CC(=NCc1ccco1)c1c(O)n(Cc2ccccc2)c(=O)[nH]c1=O	-10	-7	-1	-18	5	-3	i	.
C=CCn1c(O)c(/C=N/NC(=O)CCCC)c(=O)[nH]c1=S	6	6	-1	.	62	2	.	-1	eIF4H inh retest=1;PABP FP inh retest=-1
O=C1NC(=O)N(c2ccc3c(c2)OCO3)C(=O)/C1=C\c1ccsc1	-17	1	-7	-18	16	53	i	14	eIF4H inh retest=-17;PABP FP inh retest=38
O=P(Oc1ccccc1)(Oc1ccccc1)C(O)c1ccccc1 (stereo not drawn)	-1	3	-16	8	.	.	i	-11
O=c1[nH]c(=O)n(Cc2ccc(F)cc2)c(O)c1C=NCCCO	0	1	.	-18	-4	-2	i	-16
C=C(c1ccccc1)P(=O)(O)O	1	3	1	.	-5	2	i	-29
CCN1CCN(c2cc(N3CCCC3)c([N+](=O)[O-])cc2F)CC1	0	-1	64	.	83	5	i	.	eIF4H inh retest=-6;PABP FP inh retest=-4
CCN1C(=O)NC(=O)/C(=C\c2cn(CC(=O)N3CCCCC3C)c3ccccc23)C1=O (stereo not drawn)	-4	1	-5	-15	?	?	i	.
Cc1ccc(C2=NCC(=O)Nc3ccc(Br)cc32)cc1	2	-5	-8	7	-12	-8	i	-18
O=c1[nH]c(=S)n(-c2ccccc2)c(O)c1C=NCc1ccccn1	-4	-4	-4	-22	3	-4	i	13
S=P(Nn1cnnc1)(c1ccccc1)c1ccccc1	-2	1	2	.	-2	-6	i	2
CCC(=O)N1c2ccc(S(=O)(=O)CCC(=O)N3CCC4(CC3)OCCO4)cc2CC1C (stereo not drawn)	-8	1	10	-14	1	12	i	.
CCOC(=O)C1(CCOc2ccccc2)CCN(Cc2ccccc2OC)CC1	1	-3	7	13	-6	25	i	-6
CCC12CN3CCN(CC(C3)/C1=N\O)C2	3	4	-10	-3	-2	1	i	.
Cc1c(C(=O)O)cc(-c2ccccc2)n1Cc1ccccc1	1	1	-11	-13	-2	-3	i	-6
Cc1ccc(O)c(CN2CCC3CCC(C3)C2)c1 (stereo not drawn)	1	1	.	-15	.	.	.	6
CCCCn1c(O)c(C(=O)/C=C/c2c[nH]c3ccccc23)c(=O)[nH]c1=O	-133	0	-2	.	?	?	i	10
O=c1[nH]c(=S)n(-c2ccccc2F)c(O)c1C=NCc1ccco1	1	10	8	-8	5	92	i	-31	eIF4H inh retest=34;PABP FP inh retest=11
CCC(CC)N1CCN(C(=O)Cc2ccccc2)CC1	3	6	-6	-33	-4	5	i	.
C=CCN1C(=O)C2(C(C(=O)OCC)=C(N)Oc3ccccc32)c2c1c1ccccc1oc2=O (stereo not drawn)	.	.	-14	12	-4	3	i	-8
CC(C)C(=O)c1cn(Cc2ccccc2C#N)c2ccccc12	-2	-8	-4	-10	10	-2	i	.
N#CCP(=S)(c1ccccc1)c1ccccc1	3	6	0	.	8	3	i	-1
(next part)
SMILES	MT1-MMP act inh	MT1-MMP act inh RFP	CSC inhib	Yeast UUG start	PABP FP inh	eIF4H inh	Rce1 inhib	HIV Env fusion	others
C[N+]1(C)[C@@H]2CC(OC(=O)[C@H](CO)c3ccccc3)C[C@H]1[C@@H]1O[C@@H]12 (stereo partly drawn)	4&-1	5&1	-2	-1&-16	0&12	0&-3	i	34&22
O=c1cccc2n1CC1CC2CN(Cc2ccc3c(c2)OCO3)C1 (stereo not drawn)	2	2	-7	-5	9	-2	i	-45
CCOc1ccc2oc(C(=O)NN3C(C)CCCC3C)c(C)c2c1 (stereo not drawn)	-5	-3	-2	.	3	5	i	35
N#Cc1ccc(C(=O)N2Cc3cnnn3-c3ccccc3C2C#N)cc1 (stereo not drawn)	7	13	.	-10	.	.	.	-24
O=c1[nH]c(=S)n(-c2ccc(Cl)cc2)c(O)c1C=Nc1ccc(N2CCOCC2)cc1	-6	-7	-3	.	1	?	i	8
COC(=O)C1=C(c2ccc(S(C)(=O)=O)cc2)C[C@@H]2CC[C@H]1N2C(=O)NCCS(C)=O (stereo partly drawn)	-8	3	-19	4	.	.	i	17
CC(N)C(=O)OC(C)(C)Cc1ccc(Cl)cc1 (stereo not drawn)	2	3	-5	-2	.	.	.	-23
C=C1C(=O)O[C@H]2[C@H]1[C@H](OC(=O)CC(=O)O[C@@H]1C[C@@H](C)[C@@H]3C=CC(=O)[C@@]3(C)[C@H]3OC(=O)C(=C)[C@H]13)C[C@@H](C)[C@H]1C=CC(=O)[C@]12C	10	-18	-11	-16	13	8	i	-52
Oc1ccc2c3c1OC1C(O)CC[C@@]4(O)[C@@H](C2)N(CC2CCC2)CC[C@]314 (stereo partly drawn)	.	.	-7	.	19	4	i	.
